Screens from PubChem BioAssay.
TRPV1 potentiator: enhances activation of the human vanilloid receptor TRPV1 | 320,000 tested, 0.02% active | TRPV1-expressing cells, Fluo-8 calcium influx, capsaicin EC20 potentiation; host cell line not named in the record; control for the full effect not named in the record | potentiation, % at 8.33 µM | Q8NER1; active means potentiation above 80%; inconclusive means 30% to 80%; inactive means below 30%; also: 0% is about no effect
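Fluo-8 calcium influx in TRPV1-expressing cells, kinetic read (ex 480/em 520 nm). Compound added and read 3 min for agonist activity, followed by capsaicin at EC20 final and 2 min further read for enhancement.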
TRPML1 blocker: human mucolipin-1 channel inhibition; Q9GZU1; TRPML1-inducible cells, Ca2+ dye fluorescence, FDSS; hits give low values; inhibition of EC80 agonist-evoked calcium signal; activity change, negative = inhibition, % (concentration not given with the values); 390,000 tested, 0.02% active; AID 624415; in the data active means activity change below about -50%; inconclusive means about -30% to -50%; inactive means above about -30%;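 also: stimulus is agonist 54-4 at its EC80 concentration; % is scaled to controls: 0 for no effect and ±100 for the full control effect; compound concentration not given in the record; the text of the record puts the active cut at -80%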
Target sequence (Q9GZU1 whole entry, looked up): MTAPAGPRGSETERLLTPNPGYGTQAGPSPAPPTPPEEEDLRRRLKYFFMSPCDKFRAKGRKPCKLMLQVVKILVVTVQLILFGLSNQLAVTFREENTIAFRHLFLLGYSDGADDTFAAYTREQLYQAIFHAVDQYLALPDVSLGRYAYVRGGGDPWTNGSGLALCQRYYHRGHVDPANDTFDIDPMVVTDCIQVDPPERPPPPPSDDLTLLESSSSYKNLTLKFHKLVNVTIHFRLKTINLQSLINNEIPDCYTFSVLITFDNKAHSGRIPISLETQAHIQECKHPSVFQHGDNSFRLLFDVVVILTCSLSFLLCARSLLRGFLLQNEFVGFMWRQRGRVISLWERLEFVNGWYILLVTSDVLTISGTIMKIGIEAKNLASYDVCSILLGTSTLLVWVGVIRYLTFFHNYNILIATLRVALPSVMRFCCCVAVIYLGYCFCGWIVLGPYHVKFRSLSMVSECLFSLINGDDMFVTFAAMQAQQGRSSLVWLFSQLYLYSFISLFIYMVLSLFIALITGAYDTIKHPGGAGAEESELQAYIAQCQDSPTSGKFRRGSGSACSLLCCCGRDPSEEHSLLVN
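TRPML1-DL cells, Tet-induced overnight (~16 h, 37 °C) at 1,500 cells/well, were loaded with Ca8 no-wash dye plus quencher for 45-90 min at room temperature. Compounds were pinned during FDSS kinetic reading; agonist 54-4 at EC80 (4 uM final) then added.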
Menin MLL FP FL: menin-MLL binding inhibition, fluorescein peptide; Fluorescence polarization, fluorescein-MLL peptide displacement from menin; FP activity change, % at 61.4 µM; 290,000 tested, under 10 active; inconclusive = falling polarisation curve, or a change in total fluorescence; inactive = total fluorescence flat and polarisation flat or rising; no compound was filed as active; the % refers to the polarisation; negative = inhibition;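 also: % of control where 0% means no effect; inhibitors lower the polarisation; unlabelled MLL peptide was the positive control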
TRPML1 ag: activates the human TRPML1 channel | Q9GZU1 | TRPML1-expressing cells, Ca2+ dye fluorescence, FDSS; host cell line not named in the record; reference of the full effect not given here | activation, % (test concentration not listed) | 410,000 tested, 0.12% active; in the data active = activation above about 50%; inconclusive = about 30% to 50%; inactive = below about 30%; also: 0% is about no effect; the text of the record puts the active cut at 80%
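Kinetic FDSS Ca2+ read in Tet-induced TRPML1-DL cells (ABD Ca8 dye plus quencher, 45-90 min RT loading): baseline, then compound, then 110 s agonist window; EC80 agonist 54-4 at 4uM final added afterwards for a 110 s antagonist window.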
PINK1 expr mod: modulators of PINK1 expression | Potency, µM (highest dose often 76.6 µM), inactives show at the highest dose activation (PINK1 increase), hits mostly activators | AID 624263 | 410,000 tested, 0.2% active | PINK1 immunofluorescence, high-content cytometry, 24 h; active = well fitted activation curve with a large enough effect; inconclusive = small, poorly fitted or top-dose-only effect; inactive = flat fitted curve, though single readings scatter; cell line not stated here;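 also: potency is read from the fitted curve at half-maximal effect; % of control where 0% means no effect; nearly all actives have a fitted effect of over 65% in size; a mitochondrial uncoupler was the plate control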
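PINK1 protein level read as immunofluorescence by microplate cytometer in a fixed, stained stable cell line after 24 h exposure to five compound concentrations, with CCCP as control.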
ClpP mod: qHTS Assay for Activators of ClpP. ATP-dependent Clp protease proteolytic subunit (Bacillus subtilis (strain 168)), P80244. purified B. subtilis ClpP, FRET peptide cleavage, 20 min. Potency, µM (highest dose often 57.5 µM), for the others: at the top dose activity change, negative = active. 340,000 tested, 1.9% active. AID 651965, 2013; active = well fitted falling curve with a large enough effect; inconclusive = small, poorly fitted or top-dose-only effect; inactive = no such curve, though single readings can be large or run the other way; also: potency is read from the fitted curve at half-maximal effect; the source files actives as falling curves though it sought activators and does not explain the sign; nearly all actives have a fitted effect of over 65% in size; many hits overshoot -100%
Target sequence (P80244 whole entry, looked up): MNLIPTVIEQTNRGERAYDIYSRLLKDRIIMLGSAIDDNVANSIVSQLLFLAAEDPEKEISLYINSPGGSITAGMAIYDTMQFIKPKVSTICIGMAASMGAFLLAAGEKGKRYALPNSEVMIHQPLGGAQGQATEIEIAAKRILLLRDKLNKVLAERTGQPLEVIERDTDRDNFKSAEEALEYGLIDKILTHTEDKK
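Purified B. subtilis ClpP, 10 microg/mL final in Tris/HCl pH8 with KCl, BSA, glycerol and Tween-20, cleaved an Abz/nitrotyrosine-quenched decapeptide. Fluorescence (ex 320, em 430) was read at 0 and 20 min at room temperature. Delta was normalized to 5.8 microM ADEP and DMSO/no-enzyme controls.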
Sfp inh: blocks B. subtilis Sfp PPTase activity; 310,000 tested, 3.5% active; Biochemical Sfp PPTase activity, qHTS; Potency, µM, for the others: max response, negative = inhibition, usual class: inhibitors; Q9F4F7; active = well fitted inhibition curve with a large enough effect; inconclusive = small, poorly fitted or top-dose-only effect, or another doubt; inactive = no such curve, though single readings can be large or run the other way;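 also: the enzyme is Sfp with the accession as filed and its product quenches rhodamine fluorescence; potency is read from the fitted curve at half-maximal effect; 0% = enzyme reaction without inhibitor and -100% = no enzyme wells; top concentration of the series not given in the record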
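Step 1, compound plus 15 nM Sfp-PPTase, 15 min, room temperature. Step 2, add rhodamine-CoA (5 uM) and BHQ-2-YbbR (12.5 uM). Step 3, read 525/598 nm fluorescence at 0 and 30 min.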
* hit, by the source's call; ? = inconclusive; / = no result given; & = joins results of further samples; [ ] = remark or other dose.

Values run as follows: TRPV1 potentiator, TRPML1 blocker, Menin MLL FP FL, TRPML1 ag, PINK1 expr mod, ClpP mod, Sfp inh
1	CC1(C)C(=O)OC(/C=C/c2cccc([N+](=O)[O-])c2)C(C)(C)C1=O (stereo not given)
 : -10, 28, 2.3, -1.0, -0.2%, -3.8%, 7%
2	Cc1ccc2nc(SCC(=O)N3CCN(c4ccccc4)CC3)[nH]c2c1
 : -11, 8, 2.6, 1.8, 2.0%, /, 2%
3	COc1ccc(CCNC(=O)c2ccc([N+](=O)[O-])cc2Cl)cc1OC
 : /, -10, /, -0.4, -0.8%, -1.0%, /
4	COc1ccc(C(=O)NC(=S)N(CCC(C)C)c2c(N)n(Cc3ccccc3)c(=O)[nH]c2=O)cc1
 : -6, -5, 1.0, 0.3, -0.4%, /, 7%
5	CCc1ccc2[nH]c(=O)c(CN(CCN3CCCC3)C(=O)NC3CCCCC3)cc2c1
 : 26, -1, ?, -1.1, -0.3%, -14%, -16%
6	CC(C)(C)S(=O)N1Cc2cc(C(=O)N3CCc4ccccc4C3)nc(-c3cccc(-c4ccncc4)c3)c2[C@H]1CCO (stereo not given in full)
 : /, 6, /, -0.6, 1.1%, -0.4%, /
7	Cc1onc(-c2ccccc2Cl)c1C(=O)NNC(=O)c1ccccc1F
 : -6, -25, -9.8, 0.1, 0.3%, /, 12%
8	Cc1cc(C)c(S(=O)(=O)NCc2cccnc2)c(C)c1
 : 0, /, -1.7, /, 0.5%, 0.2%, -15%
9	Cc1ccc(-c2csc3ncn(CC(=O)O)c(=O)c23)cc1C
 : -2, 9, 0.8, -0.5, 2.0%, 0.9%, 17%
10	O=C(c1cccs1)N(Cc1ccco1)C1CCS(=O)(=O)C1 (stereo not given)
 : 5, -7, -1.2, 0.0, -0.5%[38.3 µM], -1.0%, -7%
11	c1ccc(CNc2ncnc3sccc23)cc1
 : 1, -4, 2.9, -1.1, -0.6%, -0.5%, 16%
12	Nc1ncnc2c1nc(SCCO)n2Cc1ccccc1
 : -5, -6, 6.9, -0.1, -0.4%, /, -5%
13	CCOC(=O)c1[nH]c(C)c(C(=O)NC2CCN(C(=O)OCC)CC2)c1C
 : 4, -1, -1.1, -0.9, 0.3%, -0.5%, 0%
14	CCN(CC)C(=O)CSc1nnc(-c2ccc(S(=O)(=O)N3CCOCC3)cc2)n1C
 : 9, 6, /, 0.1, 0.2%, -29%, 8%
15	COc1ccc(NC(=S)N/N=C2\CC(C)(C)Oc3ccc(OC)cc32)cc1
 : -2, -17, 7.8, 19, 6.5%, -27%, -5%
16	CC(=O)N1CCc2cc(S(=O)(=O)NC(CC(C)C)C(=O)Nc3cc(C)cc(C)c3)ccc21 (stereo not given)
 : /, 2, /, -0.3, 3.9%, -1.3%, /
17	CCCCN1C(C(=O)Nc2cc(C)on2)=C(O)c2ccccc2S1(=O)=O
 : 4, 25, -4.3, -1.0, -0.3%, -2.1%, 11%
18	CN(C)C(=O)c1ccc(-c2nc(N3CCOCC3)c3ccccc3n2)cc1
 : /, /, 5.0, /, 0.0%, /, 7%
19	CC(=O)NCCNC(=O)C1(C)Cc2c(-c3cccc(NC(C)=O)c3)ccnc2O1 (stereo not given)
 : /, /, /, 0.1, -1.2%, ?, /
20	O=C(CN1CCC(NC(=O)Nc2ccccc2-c2ccccc2)CC1)NCc1ccco1
 : 2, -1, 2.9, -0.5, 4.1%[38.3 µM], -1.5%, 9%
21	Cc1ccc(S(=O)(=O)/N=C(/Nc2cccc(O)c2)c2ccccc2)cc1
 : 0, -2, 1.2, 1.3, 0.1%, /, 1%
22	Cc1ccc(S(=O)(=O)C2(C(=O)N(C)C3CCCCC3)CC2)cc1
 : 0, 7, 1.6, 1.6, 13%[38.3 µM], -2.8%, 8%
23	CCCCCCNc1ccc(C(=O)OCC)cc1
 : /, /, /, -0.3, 4.0%, ?, /
24	O=C(Nc1ccccc1N1CCN(C(=O)c2ccccc2)CC1)c1ccc2c(c1)OCO2
 : -10, 13, 2.8, 0.1, 7.5%, 1.4%, 1%
25	CC(C)(C)NC(=O)CN(CCN1CCOCC1)C(=O)CNS(=O)(=O)c1ccccc1
 : 1, -1, 0.8, -0.3, -0.4%, /, 27%
26	COc1cc(/C=N/Nc2ccccc2)ccc1OC(=O)c1cccs1
 : -2, -3, 0.4, -0.8, 0.9%, 0.8%, -8%
27	CCC(=O)N1CCCc2cc(S(=O)(=O)N3CCC(C(=O)Nc4cccc(Cl)c4)CC3)ccc21
 : /, -8, /, 2.3, -1.1%, -3.0%, /
28	CC(=O)CC(=O)NC1C2CC3CC(C2)CC1C3 (stereo not given)
 : 3, 22, 2.9, 0.1, -0.8%, -2.7%, 13%
29	COc1ccc(CNC(=O)C(Cc2ccccc2)n2cccc2)cc1 (stereo not given)
 : -13, -6, 2.9, -0.2, 0.1%, /, 7%
30	CCC(=O)Oc1c(S(=O)(=O)c2ccc(C)cc2)c(C)nn1C(C)(C)C
 : -3, 5, -0.3, 0.1, 12%, -4.0%, 11%
31	O=C(NC1CCCCCCC1)C1CCN(S(=O)(=O)N2CCC3(CC2)OCCO3)CC1
 : -34, 16, 2.4, 0.2, -1.5%[38.3 µM], -1.2%, 25%
32	O=C(NCC(=O)N1CCN(C(c2ccccc2)c2ccccc2)CC1)c1ccccc1F
 : 1, 15, -6.3, 2.7, 0.6%, /, 11%
33	O=C(Nc1nc2ccc(S(=O)(=O)N3CCOCC3)cc2s1)c1cccs1
 : 5, -8, 5.8, -0.6, -0.3%, /, 0%
34	COc1cc(O)c(C(CC(=O)N2CCCC2)c2ccc(N(C)C)cc2)c(OC)c1 (stereo not given)
 : 5, -18&2, 5.5&1.9, 1.1&-0.3, -0.5%, -0.1%, 7%&8%
35	CCCCNC(=O)CCn1c(=O)c2cccn2c2ccc(F)cc21
 : -1, 6&3, -2.3, 0.4&1.5, 1.0%&0.9%, -5.2%&-17%, 19%
36	CCCc1cc(C(=O)Nc2cccc(Cl)c2C)no1
 : 10, 12, -6.3, -0.9, 6.6%, /, -11%
37	Cc1cc(C(=O)COc2ccc(Br)cc2F)c(C)n1C1CC1
 : -7, 7, /, 6.7, ?, 0.4%, /
38	Cc1[nH]c(C)c(S(=O)(=O)N2CCCCC2)c1C(=O)N1CCCC1
 : 6, -9, 5.6, 0.2, 1.2%, 0.2%, 15%
39	COC(=O)c1ccc(-c2cc(CC3(C(=O)OC)CCN(C(=O)OC(C)(C)C)CC3)on2)cc1
 : -20, -16, -0.4, 0.5, 2.0%, 0.3%, 0%
40	CCOC(=O)c1cccnc1NC(=O)c1ccccc1
 : 24, 0, -0.4, 4.2, -1.1%, /, 8%
41	COc1ccc(OC)c(NC(=O)NNS(=O)(=O)c2ccc(C)cc2C)c1
 : 11, 29, /, 0.7, 4.9%, ?, 12%
42	Cc1nncn1-c1ccc(C(=O)Nc2cc(F)ccc2F)cc1
 : /, 10, /, -0.7, 2.2%, 1.0%, /
43	O=C(Cn1cccc1C(=O)c1ccccc1)NCc1ccc2c(c1)OCO2
 : 12, 36, -2.2, -0.9, -1.8%, -0.1%, 10%
44	CCCCOc1ccc(C(=O)Nc2ccc3c(c2)OCO3)cc1
 : -2, 2, -1.8, 0.9, 15%, ?, -10%
45	O=C(NCc1ccc(Cl)cc1)C1=Cc2cc(Br)ccc2OC1
 : /, -3, /, 0.3, -0.2%, -4.0%, /
46	Cc1ccc(C(=O)NCC(=O)OC(C)C(=O)Nc2ccccc2[N+](=O)[O-])s1 (stereo not given)
 : /, -13, /, 2.3, 0.2%, 0.4%, /
47	Cc1cc(C)c(OCCN2C(=O)NC(C)(C)C2=O)c(Cl)c1
 : -1, -5, 0.4, 0.4, /, -0.4%, 11%
48	O=C(CCn1c(=O)sc2ccccc21)Nc1nc2ccccc2s1
 : ?, 4, 2.7, -0.6, 5.2%, -0.4%, -3%
49	O=C(NC(c1ccccc1)c1ccccc1)C1CCCO1 (stereo not given)
 : 22, -28, -2.7, -0.3, 0.4%, -0.4%, -3%
50	CN(CC(=O)Nc1cccc(F)c1)C(=O)c1cc(S(=O)(=O)N2CCCCC2)ccc1N1CCOCC1
 : 5, -10, /, -0.6, 4.2%, /, /
51	Cc1nn(C)c(Cl)c1CN1CCCC(CO)(Cc2ccccc2)C1 (stereo not given)
 : 3, 5, 3.2, 0.2, -1.2%, -3.3%, 14%
52	COc1cc(C)ccc1OCC(=O)OCC(=O)c1cc(C)n(CC2CCCO2)c1C (stereo not given)
 : 1, 21, /, 1.0, 1.7%, 0.9%, /
53	COc1ccc(-c2cc(C)no2)cc1S(=O)(=O)N(C)Cc1ccco1
 : -8, 12, /, 0.3, 1.5%, -3.3%, 4%

No enrichment for hits, and some 4.4% of all compounds hit somewhere here.
